A488 fluor = qHTS Assay for Spectroscopic Profiling in A488 Spectral Region. compound autofluorescence, A488 spectral region, dye equivalency; active compounds read high. max dye equivalency, M. 59,000 compounds, 0.1% hits; active = above 10 nM dye equivalent; inconclusive = 1 to 10 nM; inactive = 1 nM or less; about half of its hits are not listed in these tables;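 further: highest value over a series up to 38 µM; compound alone in buffer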
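Readout is A488 dye-equivalent concentration, calibrated by a per-plate six-point Alexa 488 series. Compounds in 100 mM Tris buffer pH 8.0 were incubated 15 min at room temperature. Plates were imaged using 480 nm excitation/540 nm emission filters.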
A647 autofl = qHTS Assay for Spectroscopic Profiling in A647 Spectral Region. Compound fluorescence, A647 channel (570/671 nm), Tris buffer. max dye-equivalent concentration, M. 59,000 tested, under 10 active. AID 592, 2007; active means above 1 µM dye equivalent; inconclusive means 0.1 to 1 µM; inactive means 0.1 µM or less;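 further: values scaled relative to a standard on each plate; highest value over a series up to 38 µM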
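Fluorescence read (570 nm ex, 671 nm em) after 15 min RT incubation of compounds in 100 mM Tris buffer, pH 8.0; values expressed as dye-equivalent concentration against a six-point A647 standard series on each plate.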
TSHR ag = qHTS Assay for Agonists of the Thyroid Stimulating Hormone Receptor; Potency, µM (doses to about 57.1 µM), for inactives: top-dose activation, most hits filed as activators; AID 926, 2007; HEK293-CNG-TSHR cells (CNG channel as cAMP sensor), membrane potential dye, cAMP; 73,000 compounds, 0.48% hits; active = well fitted activation curve of enough size with the parental cells flat; inconclusive = any curve in the parental cells; inactive = parental cells flat and receptor cells flat or falling; further: potency means the concentration at half of the fitted maximal effect; % of control where 0% means no effect; weak receptor curves with flat parental cells got no call and are not listed
Target sequence (P16473 whole entry, looked up): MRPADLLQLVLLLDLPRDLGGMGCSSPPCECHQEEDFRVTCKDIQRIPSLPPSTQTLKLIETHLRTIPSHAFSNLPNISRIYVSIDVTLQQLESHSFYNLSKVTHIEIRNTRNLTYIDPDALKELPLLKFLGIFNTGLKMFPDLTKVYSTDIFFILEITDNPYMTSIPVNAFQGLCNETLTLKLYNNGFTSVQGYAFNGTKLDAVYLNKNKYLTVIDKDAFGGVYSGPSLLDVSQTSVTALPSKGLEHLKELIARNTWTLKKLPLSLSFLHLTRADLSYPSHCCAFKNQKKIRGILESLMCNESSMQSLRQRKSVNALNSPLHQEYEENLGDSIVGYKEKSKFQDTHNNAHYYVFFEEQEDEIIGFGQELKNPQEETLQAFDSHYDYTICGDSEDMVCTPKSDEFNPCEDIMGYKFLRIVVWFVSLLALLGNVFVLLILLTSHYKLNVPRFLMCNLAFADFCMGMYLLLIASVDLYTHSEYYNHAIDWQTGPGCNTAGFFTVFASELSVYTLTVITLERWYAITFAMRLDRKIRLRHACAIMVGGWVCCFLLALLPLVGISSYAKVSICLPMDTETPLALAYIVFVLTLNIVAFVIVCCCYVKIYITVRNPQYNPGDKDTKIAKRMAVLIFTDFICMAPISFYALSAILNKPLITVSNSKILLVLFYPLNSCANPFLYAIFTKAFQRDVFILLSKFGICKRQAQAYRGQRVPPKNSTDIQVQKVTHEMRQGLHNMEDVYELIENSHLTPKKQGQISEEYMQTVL
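HEK 293 cells stably expressing TSHR and a cAMP-gated CNG channel; parental CNG-only cells as counterscreen. Cells preloaded 60 min with membrane potential dye plus 100 uM RO 20-1724, then compound 30 min; fluorescence read at 590 nm.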
AID923 = qHTS Assay for Allosteric/Competitive Inhibitors of Caspase-1: Spectroscopic Profiling in AFC Spectral Region; compound fluorescence, AFC spectral region (405/520 nm); almost no hit is shown here; Potency, µM (doses to about 57.5 µM), without a hit: at the highest dose fluorescence increase, most hits filed as activators; 75,000 compounds, 1.1% hits; active means well fitted activation curve with a large enough effect; inconclusive means small, poorly fitted or top-dose-only effect;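 further: potency means the concentration at half of the fitted maximal effect; 0% is about no effect; scaled to a free AFC standard on each plate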
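Titrations up to 57 uM read every 20 sec for 3 min (405/520 nm) with 50 nM caspase 1 and 5 uM Ac-WEHD-AFC, pH 7.5 HEPES buffer. Fluorescence-vs-time intercept gave baseline, scaled against on-plate AFC standard.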
Resorufin fluor = qHTS Assay for Spectroscopic Profiling in Resorufin Spectral Region; Compound fluorescence, resorufin region 547/598 nm, buffer; active compounds read high; max dye-equivalent concentration, M; 59,000 compounds, 0.04% hits; active = above 10 nM dye equivalent; inconclusive = 1 to 10 nM; inactive = 1 nM or less; a few of its hits are not listed in these tables; further: highest value over a series up to 38 µM
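Read-out: intrinsic compound fluorescence at ex 547/em 598 nm after 15 min at RT in pH 8.0 Tris (100 mM). Values expressed as resorufin-equivalent concentration from per-plate standard series.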
The depositor's hits bear a star; i = inactive; ? = inconclusive; · = not tested or not shown; & = joins results of further samples; [ ] = another dose, or the depositor's remark.

SMILES | A488 fluor | A647 autofl | TSHR ag | AID923 | Resorufin fluor
NC(=O)c1ccsc1NC(=O)c1nc(-c2ccccc2)n(-c2ccccc2)n1 | i | 3e-09 | 7% | -0.6% | i
Cn1c(CCN2CCCCC2)nc2cc(NS(=O)(=O)c3ccccc3)ccc21 | i | 2e-09 | 22% | -0.9% | i
COc1cc(OC)cc(-c2nnc(SCC(=O)N(Cc3ccccc3)C(C)(C)C)o2)c1 | i | 5.9e-09 | ? | 0.2% | i
CCOC(=O)N1CCN(C(=O)CSc2nnc(-c3c[nH]c4ccccc34)n2CCOC)CC1 | i | 4.8e-09 | 2% | 2.6% | i
CCOC(=O)C(C)Sc1nc2c(c(=O)[nH]c(=O)n2C)n1C/C=C(/C)Cl (stereo not drawn) | i | 1.4e-09 | 28% | 0.0% | i
CC1=C(C(=O)OCCOc2ccccc2)C(c2ccc(C)o2)C2=C(CC(C)(C)CC2=O)N1 (stereo not drawn) | · | · | 15% | 6.0% | ·
COc1cc(CCC(=O)N2CCN(S(=O)(=O)c3ccc(C)c(C)c3)CC2)cc(OC)c1OC | i | 1e-09 | -9% | 0.7% | i
Cc1ccc(C(=O)Nc2nc3ccc(S(C)(=O)=O)cc3s2)s1 | i | 7.8e-09 | · | 3.3% | i
C/C=C(\C)c1nnc(NC(=O)c2ccco2)s1 | i | 1.3e-08 | ? | 2.0% | i
Cc1nc(NC2=NCN(Cc3ccccc3)CN2)nc2ccccc12 | i | 1e-09 | 3% | -0.3% | i
CC1CCCCN1C(=O)c1ccccc1NC(=O)c1ccco1 (stereo not drawn) | i | 4.4e-08 | 11% | 0.1% | i
CCOc1ccc(NC(=O)c2oc3ccccc3c2NC(=O)C(C)C)cc1 | i | 2.4e-09 | ? | 2.7% | i
O=C(COc1ccccc1Cl)N1CCN(c2ncccn2)CC1 | i | 7.5e-09 | -4% | -0.4% | i
O=C(Nc1ccc(Cl)cc1F)c1ccc(COc2c(F)c(F)c(F)c(F)c2F)o1 | i | 6e-09 | ? | 1.5% | i
CC(=O)c1c(C)nc(C)nc1NC(=O)Cc1ccccc1 | i | 1e-09 | ? | 0.6% | i
O=C1c2oc3ccc(Cl)cc3c(=O)c2C(c2ccccn2)N1CCCN1CCOCC1 (stereo not drawn) | · | · | -2% | -1.1% | ·
Cc1ccc(S(=O)(=O)Nc2ccc(S(=O)(=O)Nc3ncccn3)cc2)cc1 | i | 1e-09 | -2% | 0.7% | i
COCCn1c(=O)c(-c2ccc(F)cc2)nc2cnc(Oc3ccc(OC)cc3)nc21 | i | 1.6e-08 | 0% | 20% | i
O=C(N1CCOCC1)N1CCN(C(=O)N(c2ccccc2)c2ccccc2)CC1 | i | 2.5e-08 | 3% | -1.1% | i
Cc1oc(CC(C)C)cc1C(=O)Nc1ccc(C(=O)O)cc1 | · | · | -4% | -2.8% | ·

The final 2 entries of the section above lead into the next:
SMILES | A488 fluor | A647 autofl | TSHR ag | AID923 | Resorufin fluor
O=C(N1CCOCC1)N1CCN(C(=O)N(c2ccccc2)c2ccccc2)CC1 | i | 2.5e-08 | 3% | -1.1% | i
Cc1oc(CC(C)C)cc1C(=O)Nc1ccc(C(=O)O)cc1 | · | · | -4% | -2.8% | ·
COc1ccc(C(=O)N2CCCC2)cc1S(=O)(=O)N1CCC(C)CC1 | · | · | 4% | 2.2% | ·
COC(=O)Cn1cc(C(=O)c2ccco2)c2ccccc21 | i | 1e-09 | 2% | 1.7% | i
CC(C)Cn1c(N2CCN(C(=O)c3cccs3)CC2)nc2ccccc21 | i | 2.6e-08 | ? | 1.1% | i
CCn1c(SCc2ccc(C#N)cc2)nnc1-c1ccc(S(=O)(=O)N2CCCCC2)cc1 | i | 4.5e-08 | 4% | 2.3% | i
CCNC(=O)C1CN(S(=O)(=O)c2ccccc2)CCN1S(=O)(=O)c1ccccc1 (stereo not drawn) | i | 2.1e-08 | 2% | 1.8% | i
CSc1nc2sc3c(c2c(=O)n1C)CCCC3 | · | · | -7% | 4.1% | ·
Cc1cccc(-n2c(Cc3cc(=O)[nH]c(=O)[nH]3)nnc2SCC(=O)N2CCCCC2)c1 | · | · | 2% | -0.8% | ·
CC1C[C@@]2(NC(=O)NC2=O)C(C)CN1C (stereo partly drawn) | i | 1e-09 | · | · | i
CN(C)c1ccc(-c2nc(NCCN3CCOCC3)c3ccccc3n2)cc1 | i | 3.9e-08 | ? | 8.3% | i
CC(C)Sc1nc2c(c(=O)n1-c1ccc(F)cc1)SCC2 | i | 1e-09 | ? | 1.9% | i
O=C(Cc1ccsc1-c1ccccc1)NO | i | 2.1e-08 | -3% | -1.0% | i
COc1ccc(NC(=O)CN(c2ccc(C)cc2)S(=O)(=O)c2c(C)nn(C)c2C)cc1OC | i | 3.7e-09 | 16% | -2.1% | i
COc1ccc(S(=O)(=O)N(CCCN2CCCC2=O)Cc2cc3c(C)cc(C)cc3[nH]c2=O)cc1 | i | 4.2e-08 | 6% | 1.1% | i
CC(C)(C)n1nnnc1C(c1cccc(C#N)c1)N1CCN2CCCC2C1 (stereo not drawn) | i | 1.3e-08 | 4% | -1.5% | i
O=C(Cl)c1ccccc1[N+](=O)[O-] | · | · | 6% | 0.2% | ·
CCCc1[nH]nc2c1C1(CCOC1C)C(C#N)=C(N)O2 (stereo not drawn) | i | 1.8e-08 | ? | 1.0% | i
Brc1ccc(C2Nc3cccc4cccc(c34)N2)o1 | · | · | -17% | 1.0% | ·
COc1ccc(CNC(=O)CCS(=O)(=O)c2cccc3nonc23)cc1 | i | 1.9e-08 | -2% | 0.8% | i
Cn1c(SCC(=O)Nc2ccccc2-c2ccccc2)nnc1-c1ccco1 | i | 5.6e-09 | 13% | 2.2% | i
O=C1NC2C(NC(=O)N2C2CCCCC2)N1C1CCCCC1 (stereo not drawn) | i | 3e-08 | 2% | 0.2% | i
COc1ccc(-c2cnnc(CCCn3ccnc3-c3ccccc3)n2)cc1 | · | · | 7%[11.4 µM] | -0.7%[11.5 µM] | ·
CCOc1ccc(C2=Nn3c(nnc3-c3ccccc3)SC2)cc1Cl | i | 4.2e-09 | 1% | 0.3% | i
CC(C)CCNc1nc2c(c(=O)n(Cc3cccc(F)c3)c(=O)n2C)n1C | i | 7.5e-09 | -39%[inhibitor] | -1.1% | i
O=C(NCc1cccc2ccccc12)[C@H]1C[C@@H]1[C@H](NP(=O)(c1ccccc1)c1ccccc1)c1ccccc1 | · | · | ? | -3.8% | ·
Cc1csc(SCCn2c(Br)nc3c2c(=O)[nH]c(=O)n3C)n1 | i | 1e-09 | · | · | i
CCN1CCN(C(=O)c2cc3c(s2)-c2ccccc2S(=O)(=O)C3)CC1 | · | · | -7% | 1.1% | ·
Cc1nn(C(=O)CCCC(=O)n2nc(C)c(Cl)c2C)c(C)c1Cl | i | 4.6e-09 | 7% | -0.3% | i
CCN1C(=S)SC(=O)C1=C1C=C(C)OC(C)=C1 | ? | 1e-09 | -7% | 1.4% | i
COCCOC(=O)c1c(C)oc2ccc(OC(=O)c3c(OC)cccc3OC)cc12 | i | 6.8e-09 | 9% | -0.1% | i
CCOC(=O)N1CCC(NC(=O)C2CCN(C(=O)N3CC(C)Oc4ccc(C)cc43)CC2)CC1 (stereo not drawn) | i | 2.5e-09 | 3% | 0.1% | i
CC(=O)OC1CCC(OC(C)=O)c2c1n([O-])c(C)c(C)[n+]2=O (stereo not drawn) | i | 2.8e-08 | -5% | 1.8% | i
C=CCNc1nc(C2(C)CC3(CC(C)(C)OC3=O)C(=O)O2)cs1 (stereo not drawn) | i | 6.2e-08 | · | · | i
CCOC(=O)C1CCN(CCC(=O)Nc2cccc(Cl)c2)CC1 | · | · | 1% | 1.7% | ·
O=C(NCCCN1CCOCC1)c1ccc(Br)s1 | i | 6.9e-08 | 9% | 1.8% | i
COC(=O)/C=C\CCc1coc(/C=C\CNC(=O)OC)n1 | · | · | -5%[11.4 µM] | -2.4%[11.5 µM] | ·
Cn1c(SCC(=O)NC2CCCCC2)nnc1-c1cc2cc(Cl)ccc2o1 | i | 6.4e-09 | · | 0.0% | i
O=C(CN(CCc1ccccc1)C(=O)CNS(=O)(=O)c1ccc(F)cc1)NCC1CCCO1 (stereo not drawn) | i | 3.7e-09 | -9% | -2.4% | i
COc1cccc(-c2nn(C)c3sc(C(=O)NCc4ccc5c(c4)OCO5)cc23)c1 | · | · | 18% | 2.5% | ·
O=C(NCc1cccc(Cl)c1)c1ccco1 | i | 3e-09 | 3% | 0.6% | i
Cc1ccc(C(=O)NCCNC(=O)CN2CCOCC2)cc1 | i | 2.1e-08 | ? | 0.0% | i
CC(C)COC(=O)C(N)C(C(=O)OCC(C)C)c1ccccc1 (stereo not drawn) | i | 4.5e-08 | 18% | -0.7% | i
Cc1ccc(S(=O)(=O)c2nc(S(C)(=O)=O)sc2NCC2CCCO2)cc1 (stereo not drawn) | · | · | 18%[11.4 µM] | -2.1% | ·
Cc1cc(NC(=O)CN2C(=O)C3CC=CCC3C2=O)no1 (stereo not drawn) | i | 1e-09 | 21% | 0.0% | i
O=C(NC1CC2CCCC(C1)N2C1CC1)NC12CC3CC(CC(C3)C1)C2 (stereo not drawn) | i | 1e-09 | 5% | -0.1% | i
CCOC(=O)COn1c2c(c3c4no[n+]([O-])c4ccc31)CCCC2 | i | 2.6e-08 | ? | 0.5% | i
Cc1cc(C)c2c(n1)nn1c(C3CC3)cc(C(F)(F)F)nc21 | i | 2.6e-09 | · | 0.5% | i
COc1ccc(N2C(=O)CCC(C(=O)N3CCOCC3)C2c2ccc(F)cc2)cc1 (stereo not drawn) | i | 4e-08 | -3%[11.4 µM] | 0.4% | i
O=S1(=O)C=C(Sc2nc3cc(Cl)ccc3o2)c2ccccc21 | i | 2.3e-08 | 2% | 0.0% | i
COc1ccccc1-c1nc(C#N)c(N2CCc3ccccc3C2)o1 | i | 3.9e-08 | ? | 0.8% | i
CSc1nc(O)c(Cc2ccccc2)c(=O)[nH]1 | i | 1.9e-08 | · | · | i
CC(C)NC(=O)N1CC2(CCN(C(=O)c3ccncc3)CC2)C1 | i | 2.4e-08 | 1% | -0.8% | i
CCN(CC)c1nc2n(c(=S)n1)CCS2 | i | 2.8e-08 | 0% | 0.2% | i
O=C(O)[C@H]1CN(CCCP(=O)(O)O)CCN1 | i | 3.4e-09 | 6%&0%&3% | -0.8%&-2.9% | i
COc1ccc(-c2csc3ncnc(NCCN4CCOCC4)c23)cc1 | i | 1e-09 | 6% | -0.3% | i
O=c1[nH]c(=O)n([C@H]2C[C@H](O)[C@H](CO)O2)cc1Br | i | 1e-09 | ? | · | i
COC(=O)c1c(NC(=O)Cc2cccs2)sc(C)c1C | · | · | ? | 0.2% | ·
CCOC(=O)CN1C(=O)COc2ccc(C(C)(C)C)cc21 | i | 1.9e-08 | 17% | 0.2% | i

Quoted from the entries so far for reference:
SMILES | A488 fluor | A647 autofl | TSHR ag | AID923 | Resorufin fluor
NC(=O)c1ccsc1NC(=O)c1nc(-c2ccccc2)n(-c2ccccc2)n1 | i | 3e-09 | 7% | -0.6% | i
Cn1c(CCN2CCCCC2)nc2cc(NS(=O)(=O)c3ccccc3)ccc21 | i | 2e-09 | 22% | -0.9% | i
COc1cc(OC)cc(-c2nnc(SCC(=O)N(Cc3ccccc3)C(C)(C)C)o2)c1 | i | 5.9e-09 | ? | 0.2% | i
CCOC(=O)N1CCN(C(=O)CSc2nnc(-c3c[nH]c4ccccc34)n2CCOC)CC1 | i | 4.8e-09 | 2% | 2.6% | i
CCOC(=O)C(C)Sc1nc2c(c(=O)[nH]c(=O)n2C)n1C/C=C(/C)Cl (stereo not drawn) | i | 1.4e-09 | 28% | 0.0% | i
CC1=C(C(=O)OCCOc2ccccc2)C(c2ccc(C)o2)C2=C(CC(C)(C)CC2=O)N1 (stereo not drawn) | · | · | 15% | 6.0% | ·

Source: PubChem (National Center for Advancing Translational Sciences (NCATS))

The list is partial; the hit share may differ from the screen's.
